Source: PubChem BioAssay
Rango-impB inh – inhibitors of Rango-importin beta complex formation; Potency, µM (top dose mostly 92.2 µM), for the others: at the highest dose inhibition of complex formation; Q14974; Rango CFP/YFP FRET sensor + importin beta, 45 min; AID 540263; 340,000 compounds, 0.031% hits; active = rising FRET ratio curve, often small or poorly fitted; inconclusive = mostly compound fluorescence or quenching in the first reads; inactive = flat curves in all reads;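 further: potency means the concentration at half of the fitted maximal effect; 0% = DMSO wells and 100% = buffer wells lacking importin beta; nearly all actives have a fitted effect of over 15% in size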
Target sequence (Q14974 whole entry, looked up): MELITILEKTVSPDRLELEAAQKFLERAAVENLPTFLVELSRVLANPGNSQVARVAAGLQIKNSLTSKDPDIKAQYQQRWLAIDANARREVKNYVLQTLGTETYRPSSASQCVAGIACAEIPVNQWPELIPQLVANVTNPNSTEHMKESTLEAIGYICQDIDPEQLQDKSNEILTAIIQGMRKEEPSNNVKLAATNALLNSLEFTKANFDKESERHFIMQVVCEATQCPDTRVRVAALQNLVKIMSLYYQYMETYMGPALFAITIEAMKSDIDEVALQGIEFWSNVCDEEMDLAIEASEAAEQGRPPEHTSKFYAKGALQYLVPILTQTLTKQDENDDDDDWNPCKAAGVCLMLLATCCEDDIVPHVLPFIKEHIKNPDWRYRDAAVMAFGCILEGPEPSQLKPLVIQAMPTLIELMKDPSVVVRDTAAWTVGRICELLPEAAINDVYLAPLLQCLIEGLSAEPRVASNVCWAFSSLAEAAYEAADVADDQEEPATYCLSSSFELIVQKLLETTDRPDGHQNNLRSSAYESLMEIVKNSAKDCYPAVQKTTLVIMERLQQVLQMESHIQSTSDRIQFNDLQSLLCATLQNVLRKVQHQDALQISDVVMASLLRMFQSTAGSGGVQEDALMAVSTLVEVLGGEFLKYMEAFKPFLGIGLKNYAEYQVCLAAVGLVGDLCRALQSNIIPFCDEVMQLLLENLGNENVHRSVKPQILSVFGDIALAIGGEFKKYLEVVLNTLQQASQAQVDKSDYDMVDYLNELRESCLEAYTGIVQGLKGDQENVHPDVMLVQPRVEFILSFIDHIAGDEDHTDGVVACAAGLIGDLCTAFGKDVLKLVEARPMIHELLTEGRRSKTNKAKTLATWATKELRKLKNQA
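FRET biosensor (snurportin 1 IBB flanked by EYFP and cerulean), 50 nM, with compound 5 min, then 0.125 microM importin beta in PBS, 1 mM DTT, 0.02% Tween-20, 0.1% BSA. CFP/YFP ratio read after 45 min at room temperature; pre-read flags interference.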
GLA inh pH 4.5 – inhibitors of human alpha-galactosidase A at pH 4.5; P06280; AID 1467; activity change, negative = inhibition, % at 105 µM; purified enzyme, 4-MU-alpha-Gal fluorescence, pH 4.5; 230,000 tested, under 10 active; inconclusive = small, poorly fitted or top-dose-only inhibition, or a rising curve; inactive = flat fitted curve, though single readings scatter; no compound was filed as active;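 further: 0% = full activity with enzyme and -100% = basal without enzyme; dose as in the result columns while the protocol names 77 µM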
miR-21 FLuc – miR-21 reporter, rising signal; HeLa miR-21 FLuc reporter, luciferase, 48 h; Potency, µM (top dose mostly 38.3 µM), inactives show top-dose reporter change, positive = more light; 340,000 tested, under 10 active; active = well fitted rising curve with a large enough effect; inconclusive = small, poorly fitted or top-dose-only effect; inactive = no such curve, though single readings can be large or run the other way;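 further: % of control where 0% means no effect; miR-21 action dims this reporter so a rising signal means less miR-21 action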
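HeLa cells endogenously expressing miR-21, stably carrying CMV-driven firefly luciferase with a downstream miR-21 binding site, 2000 cells/well. Titrations up to approximately 40 uM, 48 hours; luciferase luminescence read.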
Rango release inh – inhibitors of RanGTP-induced Rango-importin beta complex dissociation; Biochemical FRET Rango-importin beta, RanGTP-induced dissociation; Potency, µM (series often up to 46.1 µM), inactives show top-dose activity change, negative = inhibition; 340,000 compounds, 0.071% hits; active means falling FRET ratio curve, often poorly fitted, with flat reads before Ran was added; inconclusive means other falling curves, or compound fluorescence or quenching; inactive means flat or rising ratio curve;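 further: potency means the concentration at half of the fitted maximal effect; % of control where 0% means no effect; nearly all actives have a fitted effect of over 45% in size; -100% = wells without RanGTP and RCC1; the record marks most hits as doubtful in a second field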
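Rango (0.1 uM)–importin beta (0.25 uM) complex; RanGTP-RCC1 trigger; 45 min RT; CFP/YFP FRET read.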
* hit, by the source's call; ? = inconclusive; / = no result given; & = joins results of further samples.

SMILES	Rango-impB inh	GLA inh pH 4.5	miR-21 FLuc	Rango release inh
Cc1cccc(NC(=O)CN(c2ccc(C(C)C)cc2)S(=O)(=O)c2c(C)nn(C)c2C)n1	-2.5%	-5	5%	-10%
COc1ccc(Cl)cc1NC(=O)CSc1nnc(C)c(=O)n1N	0.0%	/	2%	-1%
Cc1ccc(C(=O)NCC(=O)NC2CCC(C)CC2)s1 (centres undefined)	0.7%	/	/	14%
CCCN(CC(=O)NC(=O)NC1CCCCC1)CC(=O)Nc1cc(Cl)ccc1Cl	-1.9%	/	/	5%
COc1ccc(C(CCNC(C)c2ccccc2)c2ccc(F)cc2)cc1 (centres undefined)	-2.6%	-7	?	1%
O=C(c1cc2cc(F)ccc2[nH]1)N1CCC(Cc2ccccc2)CC1	1.1%	/	-22%	-14%
CN(C)c1ccc(/C=N\Nc2ccccn2)cc1	-11%	/	-61%	12%
CC(c1ccc(F)cc1)n1cc(C(=O)NCCN(C)C)nn1 (centres undefined)	-1.0%	5	-2%	40%
CCCC1(C(=O)OCC)NC(c2ccc(N(C)C)cc2)C2C(=O)N(c3ccc(F)cc3)C(=O)C21 (centres undefined)	-3.3%	0	2%	10%
CCOC(=O)C1CCCN(C(=O)c2cc3ncc(Br)cn3n2)C1 (centres undefined)	-1.3%	-3	1%	-5%
CC(C)OC(=O)C(NC(=O)c1ccccc1)=C1CCCCC1	2.2%	-2	-5%	-12%
CCN1CCN(c2oc(-c3ccc([N+](=O)[O-])cc3)nc2C#N)CC1	-0.4%	-2	0%	-5%
C[C@H]1CN([C@@H](C)CO)C(=O)c2cccc(NC(=O)Nc3ccc(C(F)(F)F)cc3)c2O[C@@H]1CN(C)S(=O)(=O)c1ccc(Cl)cc1	-0.2%	/	/	22%
CC1(C)CC(=O)C2=C(C1)Nc1ccccc1NC2c1ccccn1 (centres undefined)	-1.5%	-8	-8%	3%
CN(C)NC(=O)c1csnc1-c1c(Cl)cccc1Cl	-1.8%	-2	1%	-4%
CC(=O)Nc1ccc(S(=O)(=O)Nc2nnc(CC(C)(C)C)s2)cc1	-2.1%	0	-11%	26%
Cc1nc(N2CCCCC2)sc1C(=O)c1ccc(SCCO)c([N+](=O)[O-])c1	?	-13	3%	2%
O=S(=O)(NCC1CCCO1)c1ccc(S(=O)(=O)N(Cc2ccc(F)cc2)C2CCCCC2)cc1 (centres undefined)	1.1%	/	/	4%
COc1ccc(-n2c(C(C)n3nc(C)c([N+](=O)[O-])c3C)n[nH]c2=S)cc1 (centres undefined)	1.2%	2	-2%	-4%
O=C(Cc1cccs1)Nc1cccc(-c2ccc3nncn3n2)c1	0.7%	-7	-1%	-2%
CCOC(=O)c1c(C)[nH]c(C(=O)N/N=C/c2ccc(Br)cc2)c1C	1.8%	-2	24%	20%
CCc1cc(C(=O)N/N=C/c2ccc(O)cc2O)c2ccccc2n1	?	/	16%	?
CC(=O)Nc1ccc(SCCN2CC[C@@H](C)CCC2=O)cc1	-5.8%	/	/	-11%
[O-][N+]1=C2CCC/C(=N\O)C2=NC12CCCCC2	-4.3%	0	-3%	-5%
CCOC(=O)C1CCN(S(=O)(=O)c2ccc(Cl)s2)CC1	-0.7%	/	0%	3%

Filtered by structure, those above with bromine.
SMILES	Rango-impB inh	GLA inh pH 4.5	miR-21 FLuc	Rango release inh
CCOC(=O)C1CCCN(C(=O)c2cc3ncc(Br)cn3n2)C1 (centres undefined)	-1.3%	-3	1%	-5%
CCOC(=O)c1c(C)[nH]c(C(=O)N/N=C/c2ccc(Br)cc2)c1C	1.8%	-2	24%	20%

Next section
SMILES	Rango-impB inh	GLA inh pH 4.5	miR-21 FLuc	Rango release inh
Cc1cc2occ(CC(=O)Nc3nnc(C4CC4)s3)c2cc1C	2.9%	-2	-2%	8%
CC(=O)NNC1=Nc2ccccc2N(C)C(C)C1 (centres undefined)	0.2%	10	-1%	4%
Cc1ccc(CNC(=O)CSCC(=O)O)cc1	0.4%	0	-1%	-8%
O=C(NCCN1CCOCC1)c1ccc2c(c1)N(Cc1ccccc1)CCS2	5.4%	24	-7%	15%
Cc1ccccc1-c1nc(CS(=O)(=O)CC(=O)NCCc2ccccc2)c(C)o1	-5.2%	/	0%&7%	-12%
Cc1ccc2nc3c(cc(C(=O)NCC4CCCO4)c(=N)n3CC3CCCO3)c(=O)n2c1 (centres undefined)	?	/	-5%	?
CC(SCc1ccccc1)C(=O)N/N=C/c1cc2c(cc1Br)OCO2 (centres undefined)	-4.9%	-1	-9%	13%
Cc1nc(S(=O)(=O)N(C)Cc2ccccc2)c(C#N)c(C)c1Cl	2.4%	1	-4%	-5%
CCOCCCNC(=O)CCN1C(=O)c2ccccc2Sc2ncccc21	-4.7%	/	-4%	2%
COc1cccc(C(=O)OCc2cc(=O)oc3c(C)c(C)ccc23)c1OC	-0.7%	/	11%	4%
CN(CCc1ccccc1)C(=O)c1ccc(NC(=O)Cc2ccc(NC(=O)C3CCN(C(=O)C4CCC4)CC3)cc2)cc1	-3.2%	/	/	-2%
O=C(/C=C/c1ccccc1)OCCN=C1NS(=O)(=O)c2ccccc21	-2.1%	/	-4%	-1%
C[C@H](NC(=O)c1ccccc1)C(=O)OCC(=O)Nc1ccc2c(c1)OCO2	-2.0%	/	/	14%
COc1cc(SC)ccc1C(=O)OCC(=O)NC1CCCCC1	-2.2%	11	-18%	9%
CC(CCc1ccccc1)NS(=O)(=O)c1ccc(Cl)c(C(=O)O)c1 (centres undefined)	?	/	-2%	?
Oc1ccc(/C(Cc2ccc3ccccc3n2)=N\Nc2ccccc2)c(O)c1	?	-13	-23%	0%
CCN1CCC(=NNC(=O)CC23CC4CC(CC(C4)C2)C3)CC1	-0.1%	-9	-6%	28%
O=C(CSc1nc(O)c(Cc2ccccc2)c(=O)[nH]1)Nc1nc2c(s1)CCCC2	?	-3	-18%	0%
COc1ccc(/C=N/NC(=O)c2c(C)nc3ccc(Cl)cn23)cc1OC	-0.5%	/	5%	1%
O=C(CN1C2CCCC1CC(NC(=O)c1ccccc1)C2)Nc1nccs1 (centres undefined)	1.8%	-3	-2%	15%
CCCCOc1ccc(CNC(=O)NS(=O)(=O)c2ccc(OCC(C)C)cc2)cc1	-3.0%	-1	3%	3%
Cc1csc(=O)n1CCC(=O)OCc1nnc(-c2ccc(Cl)cc2)o1	0.2%	/	/	-2%
CCN(CC(=O)NCc1cccs1)C(=O)c1ccc(S(=O)(=O)Nc2ccccc2)cc1	0.2%	/	/	0%
CCOC(=O)c1c(NC2OC(=O)c3c2ccc(OC)c3OC)sc(C(=O)OC(C)(C)C)c1C (centres undefined)	-5.9%	-15	-64%	5%
CCOc1ccc(/C=N/NC(=S)NC2CC3C=CC2C3)cc1 (centres undefined)	4.4%	-9	-7%	13%

Carrying on.
SMILES	Rango-impB inh	GLA inh pH 4.5	miR-21 FLuc	Rango release inh
Cc1ccnc(NC(=O)c2cccc(S(=O)(=O)N3CCOCC3)c2)c1	4.5%	/	/	-1%
Cc1ccc(NC(=O)c2cc(NC(=O)/C=C\C(=O)O)ccc2N2CCCCC2)cc1	2.7%	/	-2%	1%
COc1ccc(N2C(=O)CC(NCC#N)C2=O)cc1 (centres undefined)	1.6%	/	2%	-13%
CC(C)NC(=O)/C=C/C(=O)O	0.4%	-1	10%	-1%
COc1ccc(C(=O)/C=C/c2ccccc2C(F)(F)F)cc1	-2.8%	3	-20%	-3%
CC(OC(=O)CC(C)c1ccccc1)C(=O)Nc1ccc(Cl)cn1 (centres undefined)	0.9%	/	/	24%
O=C(NCCO)C(=O)NCC1OCCCN1S(=O)(=O)c1ccc2c(c1)OCCO2 (centres undefined)	-2.1%	/	0%	-21%
O=C(Nc1ccccc1C(=O)N1CCOCC1)c1ccc(CSc2ccccc2)cc1	0.1%	2	0%	-2%
CCOc1cc(/C=N/N=C(\N)c2nonc2N)cc(Br)c1OCc1cccc2ccccc12	0.3%	4	1%	-1%
CCC(CC)c1nnc(NC(=O)c2ccc(S(=O)(=O)N3CCc4ccccc4C3)cc2)s1	-0.3%	2	6%	-3%
Cc1cc(C)c(S(=O)(=O)c2ccc(Cl)cc2)c(Cl)n1	-0.1%	-7	-1%	0%
Cc1c2cccn2cc[n+]1C	-2.6%	-4	-6%	0%
COc1ccc(NC(=O)C2(c3ccc(NC(=O)c4ccc(OC)c(OC)c4)cc3)CCCC2)cc1	7.1%	-7	-2%	5%
COC(=O)c1ccccc1NC(=O)CN1C(=O)C2CCCN2c2ncc(Cl)cc21 (centres undefined)	/	-7	-9%	/
Cc1ccc(NC(=O)c2cc3ccccc3o2)cc1S(=O)(=O)N(C)C	-2.4%	-1	-50%	5%
Cc1cc(C)c2oc(C(=O)N(Cc3cccs3)C3CCS(=O)(=O)C3)cc(=O)c2c1 (centres undefined)	-1.9%	-1	-12%	8%
Cc1cccc(OCC(=O)Nc2ccccc2N2CCN(C(=O)C(C)C)CC2)c1C	1.6%	-12	-2%	12%
COc1cccc(C(=O)NCC(=O)OCC(=O)Nc2ncc(Cl)cc2Cl)c1	-4.5%	-7	-1%	-11%
CCOC(=O)C1CCCN(C(=O)c2cc(=O)c3ccccc3o2)C1 (centres undefined)	-1.8%	0	-6%	-13%
C[C@@H]1CN([C@H](C)CO)C(=O)Cc2cc(NC(=O)Cn3cnnn3)ccc2O[C@@H]1CN(C)Cc1ccc(Cl)c(Cl)c1	-1.1%	/	/	-9%
CC(NC(=O)C1CCN(S(=O)(=O)c2ccc3c(c2)NC(=O)CO3)CC1)c1ccccc1 (centres undefined)	-0.1%	/	0%	0%
CSc1cc(C)n(-c2ccc(Cl)cc2)c(=S)c1C(C)=O	0.4%	-3	-6%	-7%
CC(=O)Nc1ccc(C(=O)N/N=C/c2ccccc2OCc2ccccc2)cc1	2.8%	-2	10%	-7%
Cc1cccc(NC(=O)CN(C)C(=O)C2CCCC2)c1C	3.8%	/	/	5%
COCCn1c(=N)c(C(=O)NCCc2ccc(OC)cc2)cc2c(=O)n3cccc(C)c3nc21	?	6	0%	?

Five compounds out of the list above, arranged by the number in Rango-impB inh, falling.
SMILES	Rango-impB inh	GLA inh pH 4.5	miR-21 FLuc	Rango release inh
Cc1cccc(NC(=O)CN(C)C(=O)C2CCCC2)c1C	3.8%	/	/	5%
CC(=O)Nc1ccc(C(=O)N/N=C/c2ccccc2OCc2ccccc2)cc1	2.8%	-2	10%	-7%
CCC(CC)c1nnc(NC(=O)c2ccc(S(=O)(=O)N3CCc4ccccc4C3)cc2)s1	-0.3%	2	6%	-3%
Cc1cc(C)c2oc(C(=O)N(Cc3cccs3)C3CCS(=O)(=O)C3)cc(=O)c2c1 (centres undefined)	-1.9%	-1	-12%	8%
Cc1ccc(NC(=O)c2cc3ccccc3o2)cc1S(=O)(=O)N(C)C	-2.4%	-1	-50%	5%

(further entries)
SMILES	Rango-impB inh	GLA inh pH 4.5	miR-21 FLuc	Rango release inh
Cn1c(NC(=O)c2ccccc2)cc(=O)n(C)c1=O	3.3%	-4	-7%	8%
CCN(CC)c1ccc(NC(=O)c2cccc(OC)c2)c(C)c1	0.8%	-12	11%	0%
CC(=O)c1ccc(N2CCN(C(=O)c3ccc(NC4=NC5CS(=O)(=O)CC5S4)cc3)CC2)cc1 (centres undefined)	2.3%	/	-4%	-1%
Cc1ccc(Cn2c(CCCO)nc3ccccc32)cc1	-0.2%	/	-14%	-16%
NC(=O)CC(NSc1ccccc1[N+](=O)[O-])C(=O)O (centres undefined)	7.1%	-11	0%	14%
Cc1cccc(N(C)S(=O)(=O)c2ccc3[nH]cc(C(=O)N4CCOCC4)c(=O)c3c2)c1	-0.4%	-9	0%	10%
CN(C)c1ccc(C(=S)N2CCN(C(=S)Nc3ccc(Cl)cc3)CC2)cc1	3.8%	3	2%	6%
Cc1nn(CCCC(=O)Nc2cccnc2)c(C)c1[N+](=O)[O-]	0.4%	-6	-2%	-25%
CCCCN1C(=O)N(C)C2NC(=O)NC21 (centres undefined)	5.1%	10	0%	-1%
O=C(COc1ccc(Br)cc1Cl)NC(=O)NC1CCCC1	-1.1%	/	/	0%
Cc1cc(C)n2cc(CSc3nnnn3-c3ccc(Cl)cc3)nc2n1	3.1%	4	0%	-6%
O=C(NC1CCCC1)C(c1ccccc1)N(Cc1ccc2c(c1)OCO2)C(=O)Cc1cccs1 (centres undefined)	1.9%	-6	9%	2%
COc1cccc(NC(=O)COC(=O)c2ccccc2C(=O)N(C)c2ccccc2)c1	-1.2%	/	/	3%

Some of the compounds tested; rates above refer to the full screens.
